Six1-Eya2 blk: Six1/Eya2 interaction inhibition. Q15475+O00167. AlphaScreen GST-Six1/His-Eya2 binding, biochemical; active compounds read low; control for the full effect not named in the record. activity change, % (no concentration beside the values). actives 0.56% (n = 360,000); in the data active = activity change below about -65%; inconclusive = about -30% to -65%; inactive = above about -30%; further: on the % scale 0 is the no-effect control and ±100 the full control effect
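AlphaScreen with GST-Six1 and His-Eya2 (5X mix: 250 nM and 500 nM), glutathione donor and nickel acceptor beads; buffer 50 mM Tris pH 8.0, 300 mM NaCl, 1 mM TCEP; 1 h at 37 C in the dark.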
TRPML1 ag: activates the human TRPML1 channel; Q9GZU1; TRPML1-expressing cells, Ca2+ dye fluorescence, FDSS; host cell line not named in the record; reference of the full effect not given here; activation, % (test concentration not listed); actives 0.12% (n = 410,000); AID 624414; in the data active = activation above about 50%; inconclusive = about 30% to 50%; inactive = below about 30%; further: 0% is about no effect; the text of the record puts the active cut at 80%
Target sequence (Q9GZU1 whole entry, looked up): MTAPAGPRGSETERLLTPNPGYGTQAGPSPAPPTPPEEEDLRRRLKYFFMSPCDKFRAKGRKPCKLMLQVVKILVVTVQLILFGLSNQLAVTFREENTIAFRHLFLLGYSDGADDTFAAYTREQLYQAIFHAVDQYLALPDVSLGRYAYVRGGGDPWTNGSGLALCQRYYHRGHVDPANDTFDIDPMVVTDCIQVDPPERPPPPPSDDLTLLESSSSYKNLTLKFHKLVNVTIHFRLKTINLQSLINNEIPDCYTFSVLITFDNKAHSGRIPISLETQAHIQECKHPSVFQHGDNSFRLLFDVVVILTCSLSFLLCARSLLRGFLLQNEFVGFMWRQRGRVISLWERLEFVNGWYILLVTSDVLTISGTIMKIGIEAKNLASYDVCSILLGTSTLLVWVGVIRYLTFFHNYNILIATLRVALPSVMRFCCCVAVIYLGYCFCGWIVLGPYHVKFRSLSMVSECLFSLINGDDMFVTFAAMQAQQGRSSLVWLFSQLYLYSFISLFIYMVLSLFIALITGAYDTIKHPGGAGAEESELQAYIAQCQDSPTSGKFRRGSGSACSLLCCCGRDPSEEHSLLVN
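In this qHTS format, compounds were pin-transferred onto Ca8-dye-loaded TRPML1-DL cells induced with Tet overnight, and intracellular Ca2+ fluorescence was recorded kinetically for 110 s after a 10 s baseline. A subsequent 4uM final 54-4 (EC80) addition followed by a second 110 s read served as the antagonist phase.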
D2 ag: activates the human D2 dopamine receptor; P14416; DiscoveRx PathHunter D2 beta-arrestin, luminescence, 90 min; 100% = 57 uM dopamine signal; activation, % (test concentration not listed); actives 0.084% (n = 360,000); in the data active = activation above about 40%; inconclusive = about 15% to 40%; inactive = below about 15%; further: compound concentration not given in the record; the text of the record calls up to 30% inactive
Target sequence (P14416 whole entry, looked up): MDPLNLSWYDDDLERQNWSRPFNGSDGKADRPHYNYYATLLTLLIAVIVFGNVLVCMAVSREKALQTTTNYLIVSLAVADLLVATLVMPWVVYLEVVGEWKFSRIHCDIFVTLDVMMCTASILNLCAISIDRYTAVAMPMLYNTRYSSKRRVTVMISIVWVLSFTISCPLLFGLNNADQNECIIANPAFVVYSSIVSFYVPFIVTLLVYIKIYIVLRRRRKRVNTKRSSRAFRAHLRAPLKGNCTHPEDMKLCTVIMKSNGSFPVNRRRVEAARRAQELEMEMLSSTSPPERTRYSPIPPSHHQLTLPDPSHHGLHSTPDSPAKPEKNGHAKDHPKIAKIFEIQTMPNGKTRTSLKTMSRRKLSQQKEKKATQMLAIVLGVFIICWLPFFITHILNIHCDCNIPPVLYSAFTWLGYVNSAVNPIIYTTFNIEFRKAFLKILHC
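DiscoveRx PathHunter D2 beta-arrestin cells (2,100/well) attached overnight, then compound-stimulated 90 min at 37 C in HBSS/10 mM HEPES/0.1% Tween-20 buffer; beta-galactosidase complementation read by luminescence after 1 h at ambient temperature. Dopamine 57 uM final (EC100) as control.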
D2 potentiator: human D2 receptor positive allosteric modulation; DiscoveRx D2 beta-arrestin cells, luminescence, 90 min; 100% = 57 uM dopamine signal; potentiation, % (no concentration beside the values); actives 0.23% (n = 360,000); active = potentiation of 50% or more; inconclusive = 30% to 50%; inactive = 30% or less;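 further: compound concentration not given in the record; tested on top of an EC20 dose of dopamine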
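PathHunter D2 cells, attached overnight at 37 deg C, received compound in DMSO plus dopamine at EC20 (50 nM final) for 90 min at 37 deg C. Beta-arrestin recruitment was read as luminescence after 1 h with detection reagent at ambient temperature.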
CtBP-E1A blk: CtBP/E1A binding inhibition | AlphaScreen GST-E1A/His-CtBP binding, 1536-well; active compounds read low; control for the full effect not named in the record | activity change, % (no concentration beside the values) | actives 0.49% (n = 340,000) | AID 651724; in the data active means activity change below about -65%; inconclusive means about -30% to -65%; inactive means above about -30%; further: on the % scale 0 is the no-effect control and ±100 the full control effect
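AlphaScreen with 125 nM GST-E1A and 125 nM His-CtBP (5X stocks) in Tris pH 8.0, 300 mM NaCl, BSA, Tween 20, TCEP. Compounds preincubated 2 h at 37 deg C, then glutathione donor/nickel acceptor beads added for 1 h at 37 deg C in dark.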
PINK1 modulator: changes PINK1 expression | PINK1 immunofluorescence, high-content cytometry, 24 h | Potency, µM (doses to about 76.6 µM), inactives show at the top dose activation (PINK1 increase), hits mostly activators | actives 0.2% (n = 410,000); active = well fitted activation curve with a large enough effect; inconclusive = small, poorly fitted or top-dose-only effect; inactive = flat fitted curve, though single readings scatter; cell line not stated here;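 further: potency means the concentration at half of the fitted maximal effect; % of control where 0% means no effect; nearly all actives have a fitted effect of over 65% in size; a mitochondrial uncoupler was the plate control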
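Measures PINK1 amount and localization on or inside mitochondria by immunofluorescence. Stable cells get compounds at 5 concentrations for 24 hours before fixation and staining; CCCP controls included.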
An asterisk follows results filed as active; ? = inconclusive; nt = not tested or not shown; & = joins results of further samples; [ ] = remark or other dose.

cpd	Molecule	Six1-Eya2 blk	TRPML1 ag	D2 ag	D2 potentiator	CtBP-E1A blk	PINK1 modulator
1	O=C(Nc1ccc(Cl)cc1)N1CCN(Cc2ccc3c(c2)OCO3)CC1	-2	0.5	0.8	-28	2	1.5%
2	O=C(c1cc(-c2ccncc2)nc2ccccc12)N1CCN(Cc2ccccc2)CC1	-15	0.2	0.8	3	-4	0.5%
3	Cc1ccc(CN(C)C(=O)COc2ccc(S(=O)(=O)N3CCCC3)cc2[N+](=O)[O-])c(C)c1	0	0.3	-1.6	-2	nt	-1.0%
4	COc1ccccc1N1CCN(Cc2cc(=O)c(OCC#N)co2)CC1	1	-0.7	-2.7	-16	3	2.7%
5	CC(C)CC(N)c1csc(Nc2ccc(C(=O)N(C)Cc3ccccc3)cn2)n1 (stereo unspecified)	?	1.4	3.7	-6	?	-0.6%
6	CC(Oc1ccccc1)C(=O)NC1CC(C)(C)NC(C)(C)C1 (stereo unspecified)	6	1.0	-0.1	-9	7	0.0%
7	O=C(CSCc1ccccc1Br)NC1CC1	1	-0.5	-0.5	-9	2	2.5%
8	COc1ccc(CC2(CO)CCN(Cc3c(C)nn(C(C)C)c3C)CC2)cc1	4	0.0	-1.0	-10	0	-0.8%
9	Cc1cc(NC(=O)c2ccccc2O)nc(C)n1	-1	-0.8	3.0	-5	nt	0.1%
10	CCCC/C=C/[C@H](c1ccccc1)[C@H](CO)Cc1cccnc1	1	0.1&1.6	-0.1	-11	12	7.5%
11	CCCNC(=O)CSc1nc2[nH]ncc2c(=O)[nH]1	2	0.3	-4.5	-8	nt	0.2%
12	COc1ccc(N2CC(C(=O)N[C@@H](C)C(=O)NC(C)c3ccccc3)CC2=O)cc1 (stereo partly specified)	6	-0.2	-12	-10	-2	-0.4%
13	C=CCc1cc(C=O)cc(OCC)c1O	-9	0.7	-1.0	-3	6	2.8%
14	CC1(O)CC(C)(C)C(C#N)C(=O)N1 (stereo unspecified)	8	1.0	-2.1	-5	4	-2.0%
15	CCC1Oc2ccc(C)cc2N(Cc2cccc(C)c2)C1=O (stereo unspecified)	31	2.6	-1.8	-13	3	13%[38.3 µM]
16	O=C(O)CC1=C(Nc2ccccc2)C(=O)N(c2ccccc2)C1c1ccc(F)cc1 (stereo unspecified)	-1	-0.9	5.3	-3	nt	1.3%
17	CN(C)CCNC(=O)C(=O)NCC1OCCN1S(=O)(=O)c1ccc(F)cc1 (stereo unspecified)	3	0.4	0.1	-2	4	-1.4%
18	N#C/C(=C\c1cccnc1)C(=O)Nc1ccc(O)cc1F	-2	0.7	3.1	3	4	1.6%
19	O=C(Nc1ccc(Oc2cccc(C(F)(F)F)c2)nc1)c1ccccc1	16	1.9	3.3	-5	-14	8.7%
20	CCC1CCCCN1C(=O)c1nn2cccnc2c1Cl (stereo unspecified)	12	0.7	-3.4	-18	0	-1.4%
21	NC(=O)NC(CC(=O)Nc1cccnc1)c1cccc(Br)c1 (stereo unspecified)	13	0.0	-3.4	5	0	-0.8%
22	CCOC(=O)c1c(NC(=O)c2ccc(Br)o2)sc2c1CCCC2	5	0.1	-1.2	-5	5	-8.9%[38.3 µM]
23	Cc1cccc(OCCCC(=O)Nc2ccc(Cl)c(S(=O)(=O)N3CCOCC3)c2)c1	1	2.2	-1.0	1	0	4.3%
24	CCOc1ccc(NC(=O)CC2C(=O)N(c3cccc(OC)c3)C(=O)N2C(C)C)cc1 (stereo unspecified)	1	-0.4	-5.0	-9	0	2.0%
25	O=C(CCc1nnc(COc2ccccc2)o1)NCc1ccccc1	3	0.3	-4.4	-2	0	1.2%
26	O=C(CN1C(=O)c2ccccc2C1=O)Nc1cccc([N+](=O)[O-])c1	7	-0.3	-7.9	-10	0	7.9%
27	Cc1nc2ccc(Br)cn2c1C(=O)N/N=C\c1ccccc1[N+](=O)[O-]	11	-0.4	-2.0	-11	1	2.4%
28	C[C@H](c1ccccc1)N1C[C@H](COCc2ccccc2)Oc2cc(N3CCC[C@@H]3CO)ccc2S1(=O)=O	-13	-0.7	nt	nt	-9	-0.1%
29	CCOC(=O)c1sc2nc(CC(=O)OC)nc(NCc3ccc(Cl)cc3)c2c1C	4	2.5	-1.7	-13	7	27%[38.3 µM]
30	O=C(NCCc1c[nH]c2ccccc12)C(=O)Nc1ccccc1	6	1.7	-2.8	-3	-20	8.2%
31	CCOc1cc(N2CCOCC2)c(OCC)cc1NC(=O)CSc1ncccn1	-5	0.5	2.8	1	-7	-0.6%
32	O=C(NC1CCCCC1)c1ccc([N+](=O)[O-])o1	3	-0.5	7.0	14	2	-0.5%
33	COC(=O)C[C@H]1C=C[C@@H](C(C(=O)OC)C(=O)OC)CN1C(C)=O	-28	-0.5	-1.1	3	?	4.8%
34	C=CCNC(=O)c1cc(Cl)ccc1Cl	11	-0.5	-0.3	-4	4	0.0%
35	O=C(Cn1c(=O)[nH]c2ccccc2c1=O)Nc1ccc2c(c1)OCO2	-6	-0.4	0.8	-7	-9	1.3%
36	O=C(CSc1nnc(Nc2ccccc2)s1)NC1CCCC1	-10	5.2	-2.9	-22	6	6.6%
37	COC(=O)C1=C(C(=O)OC)[C@@H]2N(C)c3ccc(OC)cc3[C@@]23C[C@@H](C(=O)OC)N(C(=O)CC(C)C)C3=N1	?	-0.7	3.5	-2	-30	-1.0%
38	CCc1ccc(N(CC(=O)NC(C)C)C(=O)CCC(=O)Nc2nccs2)cc1	-5	-0.3	3.5	-2	10	-1.9%
39	CC(=O)Nc1ccc(S(=O)(=O)N(C)c2ccc(OCC(=O)NCCc3ccccc3F)cc2)cc1	0	1.9	3.2	3	-21	1.5%
40	Cc1ccc(Cc2cnc(N)s2)o1	?	1.3	2.9	1	23	3.4%[38.3 µM]
41	C1=CCN(Cc2ccccc2)C1	-1	0.0	-4.3	-7	13	1.3%
42	O=C(Nc1cccc2nsnc12)c1ccc2c(c1)OCO2	33	1.1	-3.6	-10	20	-1.9%
43	Cc1cccc(N2C(=O)CC(Sc3nnc(C)s3)C2=O)c1 (stereo unspecified)	-2	-0.8	-0.1	-9	0	-0.3%
44	COc1ccc2c(c1)c(C(=O)CN1CCc3ccccc3C1)c(C)n2C	-1	0.8	-2.2	-9	nt	4.8%
45	CCc1ccc(-n2c(=O)c3ccccc3n(CC(=O)NCc3ccco3)c2=O)cc1	1	1.5	-4.4	-5	1	4.7%
46	CN1C(=O)[C@H]2[C@@H](C3CC3)N3C(=O)CN(Cc4ccc(-c5ccccc5)cc4)C(=O)[C@@]3(C)[C@H]2C1=O	3	-0.7	-1.4	-7	5	1.5%
47	CC1(C)NC(=O)N(CC(O)CN(Cc2ccccc2)Cc2ccccc2)C1=O (stereo unspecified)	3	-1.0	-3.2	-3	-2	-1.3%
48	COc1cc(/C=C2\SC(=O)N(CC(=O)Nc3cccc(C)c3)C2=O)cc([N+](=O)[O-])c1O	-5	3.2	-2.8	-5	0	1.4%
49	CCc1ccc2nc(NC(=O)c3ccc4c(=O)[nH]c(CN5CCOCC5)nc4c3)sc2c1	-2	-0.4	1.0	7	-19	1.2%
50	CCC(C)(C)n1nnnc1C(c1cccnc1)N1CCC(Cc2ccccc2)CC1 (stereo unspecified)	-3	1.4	1.2	-14	10	-0.3%

(next part)
cpd	Molecule	Six1-Eya2 blk	TRPML1 ag	D2 ag	D2 potentiator	CtBP-E1A blk	PINK1 modulator
51	COc1ccc(C(=O)/C=C/Nc2ccc(NC(C)=O)cc2)cc1OC	-11	-0.5	1.0	-14	-4	9.4%[38.3 µM]
52	O=c1ccc(Cc2ccccn2)n[nH]1	7	-0.8	1.0	0	2	-0.6%
53	COC(=O)c1ccc(C23CC4(C2)[C@H](CN(CC2CCCCC2)[C@@H]4c2ccccc2)C3c2ccc(Cl)nc2)cc1 (stereo partly specified)	-3	-0.6	0.4	-5	-13&-4	1.0%
54	COc1ccccc1CN(C)C(=O)CNC(=O)c1cccc(Cl)c1	2	-1.2	-3.2	-4	2	-0.5%
55	C=CCn1c(SCn2nnc3ccccc3c2=O)nnc1-c1ccc(Cl)cc1	4	-0.6	-4.3	-8	-3	16%[38.3 µM]
56	Cc1cc(C)c2c(N)c3cccc(C)c3nc2n1	-24	7.5	-17	-7	-16	-3.4%
57	CCCCC(=O)NC(=S)Nc1cc(C(=O)O)ccc1Cl	1	-0.2	-3.1	-21	-7	-1.0%
58	O=C(CSc1nnc(NC(=O)C2CCC2)s1)Nc1ccccc1	-1	-0.6	-2.4	-4	-1	0.6%
59	CNC(=O)COC(=O)c1ccc(NS(=O)(=O)c2ccc3c(c2)OCCO3)cc1	-2	-0.6	-5.4	-5	-2	-0.5%
60	Cc1ccc(-n2ncc(C(=O)NCc3ccc4c(c3)OCO4)c2NC(=O)c2ccco2)cc1C	-1	2.1	-2.7	-15	-6	?
61	O=c1cc(C(F)(F)F)[nH]c2ccccc12	3	-0.6	-4.9	-10	nt	1.5%
62	C=CC[C@@H](CC(=O)N(CCO)Cc1ccccc1)C(=O)N[C@@H](COC(=O)[C@@H](CC=C)Cc1ccc(F)cc1)Cc1c[nH]c2ccccc12	-21	2.8	2.4	13	nt	-0.5%
63	CN1CCC(NC(=O)c2cc(-c3cccc(Br)c3)nc3ccccc23)CC1	-2	-0.6	-2.9	-20	1	2.4%
64	COc1ccc(S(=O)(=O)N(C(C)=O)c2ccc(OC(C)=O)c3ccccc23)cc1[N+](=O)[O-]	-13	0.2	?	-15	nt	-0.3%
65	C/C(=N\NC(=O)c1ccoc1C)c1ccc(Cl)s1	-2	0.8	7.4	0	0	1.6%
66	Cc1ccccc1NC(=O)CCCSc1nc2ccccc2s1	4	0.7	-0.8	-16	-10	0.9%
67	CC(C)(C)N1NC2(CCCCC2)NC1=S	20	1.0	-4.8	-7	0	2.1%
68	Cc1cccc(NC(=S)N2CCCC2)c1	2	-0.1	-1.1	1	0	0.5%
69	CS(=O)(=O)N1N=C(c2cccs2)CC1c1ccccc1F (stereo unspecified)	-1	-0.7	2.8	-7	3	-0.6%
70	OCC[C@@H]1C[C@@H](O)[C@H](O)[C@@]2(CCc3ccccc3O2)O1	4	0.2	-3.9	-1	7	0.0%
71	CCC(=O)N(NC1=NS(=O)(=O)c2ccccc21)S(=O)(=O)c1ccc(C)cc1	8	1.0	0.4	1	-7	-1.4%
72	Cc1ccc(OCc2nnc(SCCN3CCOCC3)n2C)cc1	6	-0.4	0.2	5	1	0.1%
73	CCc1nc2c(OCCOc3ccccc3)cccn2c1N(C)C(=O)c1ccccc1F	-1	-0.1	-1.1	-9	0	4.1%

Compound activity as filed in PubChem.
